GIV-Gai inh: inhibitors of GIV peptide binding to Galpha-i3, primary screen, biochemical, fluorescence polarization, FITC-GIV GBA peptide, rat Galphai3; 90 min; hits give low values; scaled: aluminum fluoride 0%, vehicle 100%; percent of control (FP), % (concentration not given with the values); 210,000 tested, 0.42% active;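 active = replicate mean at 85% of control or lower, very high polarization wells dropped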;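 also: wells of about 15 µL received 100 nL stock; the first replicate is given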
Target sequence (P08753 whole entry, looked up): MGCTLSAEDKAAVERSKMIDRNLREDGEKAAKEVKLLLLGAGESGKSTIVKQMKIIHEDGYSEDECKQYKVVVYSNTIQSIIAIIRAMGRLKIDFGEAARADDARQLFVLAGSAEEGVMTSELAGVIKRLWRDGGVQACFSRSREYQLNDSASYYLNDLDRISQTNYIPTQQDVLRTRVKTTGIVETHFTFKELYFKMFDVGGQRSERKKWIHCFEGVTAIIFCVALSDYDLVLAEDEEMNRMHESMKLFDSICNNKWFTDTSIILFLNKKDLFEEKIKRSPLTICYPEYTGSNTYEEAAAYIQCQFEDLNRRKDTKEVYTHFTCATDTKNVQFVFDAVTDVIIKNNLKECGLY
* hit, by the source's call; & = joins results of further samples. Some of the compounds tested; count on the stated rates, not on these rows.

SMILES | GIV-Gai inh
CCOCC1OC2OC(C)(C)OC2C2OC(C)(C)OC12 (centres undefined) | 101
C=CCn1c(=O)c2cnc(-c3ccc(C)cc3)nc2n(C)c1=O | 99
COc1ccc(N2CCN(C(=O)c3cccc(N4C(=O)C5CC=CCC5C4=O)c3)CC2)cc1 (centres undefined) | 98
CN(CCOC(=O)CN1C(=O)c2ccccc2C1=O)C1=NS(=O)(=O)c2ccccc21 | 118
CCCc1[nH]nc2c1C(c1cc(OCC)c(OC(=O)N3CCOCC3)c([N+](=O)[O-])c1)C(C#N)=C(N)O2 (centres undefined) | 114
Cc1ccc(C)c(S(=O)(=O)Nc2ccccc2-c2ccc3ccccc3n2)c1 | 104
CCOC(=O)N1CC(=O)Nc2ccc(Br)cc2C1c1ccccc1Cl (centres undefined) | 107
CCOc1cc(C2Nc3cccc4cccc(c34)N2)ccc1O | 112
O=C(O)CCSc1sc(=S)sc1SCCC(=O)O | 96
Cc1ccc(S(=O)(=O)Nc2ccc3nncn3n2)cc1C | 107
N#CC1=C(N)C(C#N)(C#N)C(c2ccc(O)cc2)C2CCCC=C12 (centres undefined) | 123
CCOc1cc(C2C3=C(CC(C)(C)CC3=O)OC3=C2C(=O)CC(C)(C)C3)cc(Cl)c1O | 103
CC(C)c1ccc(C2/C(=C(/O)c3ccc(F)cc3)C(=O)C(=O)N2c2nncs2)cc1 (centres undefined) | 118
C=CCSc1nnc2c3ccccc3n(CCc3ccccc3)c2n1 | 108
Cc1ccc(C)c(C2CC(=O)Nc3c2cnn3-c2nc3ccccc3s2)c1 (centres undefined) | 100
CCCCCCCCCCCOc1ccc(C(=O)Oc2ccc(OCCCCCCCC)cc2)cc1 | 114
O=C(c1ccccc1F)N1c2ccccc2CCc2ccccc21 | 104
CCCc1cc(C2CCCN2Cc2cc(Br)ccc2O)no1 (centres undefined) | 98
CCOC(=O)c1c(-c2ccccc2)oc2ccc(NS(=O)(=O)c3cc([N+](=O)[O-])ccc3Cl)cc12 | 118
CC(=O)n1c(SCC(=O)Nc2ccc(C(C)C)cc2)nc2ccccc21 | 109
O=S(=O)(c1ccc2c(c1)-c1oncc1CO2)N1CCOCC1 | 102
CC(C)(C)C(=O)[C@H]1[C@H](c2ccsc2)C(C#N)(C#N)[C@@H]2c3ccccc3C=CN21 | 115
CN1C2C=C(N(CCc3c[nH]c4ccccc34)C(=O)c3cc(Cl)cc(Cl)c3)CC1CC2 (centres undefined) | 116
O=C(O)c1c[nH]c2ccc(S(=O)(=O)NC3CCCCNC3=O)cc2c1=O (centres undefined) | 116&99
CNC(=O)c1c(NC(=O)CCS(=O)(=O)c2ccccc2)sc2c1CCC2 | 106

19 entries already listed, ordered by length of the SMILES, lowest first.
SMILES | GIV-Gai inh
O=C(O)CCSc1sc(=S)sc1SCCC(=O)O | 96
CCCc1cc(C2CCCN2Cc2cc(Br)ccc2O)no1 (centres undefined) | 98
CCOCC1OC2OC(C)(C)OC2C2OC(C)(C)OC12 (centres undefined) | 101
O=C(c1ccccc1F)N1c2ccccc2CCc2ccccc21 | 104
C=CCSc1nnc2c3ccccc3n(CCc3ccccc3)c2n1 | 108
O=S(=O)(c1ccc2c(c1)-c1oncc1CO2)N1CCOCC1 | 102
CCOC(=O)N1CC(=O)Nc2ccc(Br)cc2C1c1ccccc1Cl (centres undefined) | 107
CC(=O)n1c(SCC(=O)Nc2ccc(C(C)C)cc2)nc2ccccc21 | 109
N#CC1=C(N)C(C#N)(C#N)C(c2ccc(O)cc2)C2CCCC=C12 (centres undefined) | 123
CNC(=O)c1c(NC(=O)CCS(=O)(=O)c2ccccc2)sc2c1CCC2 | 106
Cc1ccc(C)c(S(=O)(=O)Nc2ccccc2-c2ccc3ccccc3n2)c1 | 104
O=C(O)c1c[nH]c2ccc(S(=O)(=O)NC3CCCCNC3=O)cc2c1=O (centres undefined) | 116&99
CN(CCOC(=O)CN1C(=O)c2ccccc2C1=O)C1=NS(=O)(=O)c2ccccc21 | 118
CC(C)c1ccc(C2/C(=C(/O)c3ccc(F)cc3)C(=O)C(=O)N2c2nncs2)cc1 (centres undefined) | 118
CN1C2C=C(N(CCc3c[nH]c4ccccc34)C(=O)c3cc(Cl)cc(Cl)c3)CC1CC2 (centres undefined) | 116
CCOc1cc(C2C3=C(CC(C)(C)CC3=O)OC3=C2C(=O)CC(C)(C)C3)cc(Cl)c1O | 103
CC(C)(C)C(=O)[C@H]1[C@H](c2ccsc2)C(C#N)(C#N)[C@@H]2c3ccccc3C=CN21 | 115
CCOC(=O)c1c(-c2ccccc2)oc2ccc(NS(=O)(=O)c3cc([N+](=O)[O-])ccc3Cl)cc12 | 118
CCCc1[nH]nc2c1C(c1cc(OCC)c(OC(=O)N3CCOCC3)c([N+](=O)[O-])c1)C(C#N)=C(N)O2 (centres undefined) | 114

(more compounds)
SMILES | GIV-Gai inh
COc1ccccc1N1CCN(c2ncnc3sc(C(=O)N4CCCC4)c(C)c23)CC1 | 95
Cc1ccc(-c2nc(CN3CCC(C(=O)N4CCC(O)(c5ccc(Cl)cc5)CC4)CC3)no2)cc1 | 103
CCOCC(=O)N1CCN(c2cc(=O)n(C(C)C)c(=O)n2C(C)C)CC1 | 103
CCOc1ccc2nc(SCC(=O)Nc3cc(S(N)(=O)=O)ccc3C)sc2c1 | 102
O=C1CC(c2ccccc2)c2scc(-c3ccccc3)c2N1 (centres undefined) | 103
Cc1ccc(Cl)cc1NS(=O)(=O)c1cc(-c2nc(C(C)(C)C)cs2)cs1 | 99
CCCS(=O)(=O)c1c(S(=O)(=O)CCC)c2cnccn2c1C(=O)c1ccc(C)cc1C | 113
COc1ccc(NS(=O)(=O)c2cc(-c3c(C)nn4c3NC(=O)CCC4=O)ccc2C)c(OC)c1 | 108
COCCn1c(SCc2ccc(C(=O)OC)o2)nc2c(-c3ccccc3)cn(C)c2c1=O | 106
COc1ccc(/C=C2/SC(=Nc3ccc(C)cc3)NC2=O)cc1OC | 101
Cc1nc(N2CCN(c3ccccn3)CC2)c2c(C)c(C(=O)Nc3c(F)cccc3F)sc2n1 | 100
O=C(NCc1ccc2c(c1)OCO2)c1ccc(-c2nccc(Oc3ccccc3)n2)cc1 | 102
C=COC(=O)CSc1nc(-c2cccs2)cc(C(F)(F)F)c1C#N | 108
CCCCOc1ccc(S(=O)(=O)N2CCN(c3nc(C)cc(NCC)n3)CC2)cc1 | 104
CCS(=O)(=O)Nc1ccc(C2(C(=O)N3CCCC(C)C3)CCCCC2)cc1 (centres undefined) | 97
O=C(CC12CC3CC(CC(C3)C1)C2)Nc1nnc(SCC(=O)N2CCc3ccccc32)s1 | 110
CC(O)CN(CC(C)O)S(=O)(=O)c1ccc2[nH]cc(C(=O)O)c(=O)c2c1 (centres undefined) | 112
COc1ccc(C2CC(=O)Nc3c2c(C)nn3-c2nc3ccccc3n2C)cc1Br (centres undefined) | 102
CCOc1ccc(NC(=O)CSc2nc3cc(C(=O)N4CCC(C(N)=O)CC4)ccc3c(=O)n2-c2ccccc2)cc1 | 102
O=C(Nc1cc(F)c2nc(N3CCCC3)ccc2c1)c1ccc(Cl)cc1 | 103
COCCOC(=O)C1=C(C)NC2=C(C(=O)CC(c3cccs3)C2)C1c1coc2ccc(C)cc2c1=O (centres undefined) | 106
Cc1cc(C)c2c(n1)sc1c(=O)n(CC(=O)Nc3ccc(F)cc3Cl)cnc12 | 100
COC(=O)c1c(C)oc2ccc(N(C(=O)c3ccccc3Cl)S(=O)(=O)c3ccc(C)cc3)cc12 | 109
CC12COC3(C(=O)Nc4cccc(Cl)c4)CC1CCC32C (centres undefined) | 105
CCOC(=O)c1ccc(-n2c(=S)sc3c2nc(SC)n2c4ccccc4nc32)cc1 | 115
SMILES | GIV-Gai inh
CCOC(=O)C1CCC(CNC(=O)N2CCCC2c2cc(C)no2)CC1 (centres undefined) | 103
CCOC(=O)C1=C(C)N=c2s/c(=C/c3cc([N+](=O)[O-])ccc3N3CCN(C)CC3)c(=O)n2C1c1ccc(OC)cc1 (centres undefined) | 104
O=C(Cn1ccc2c(SCc3ccccc3)nccc21)N1CCN(c2ccccc2F)CC1 | 105
COc1ccc(/C(O)=C2/C(=O)C(=O)N(c3cccc(C(=O)O)c3)C2c2ccccc2)cc1 (centres undefined) | 105
CCOC(=O)c1ccc(NC(=O)CSc2nc3ccccc3c(=O)[nH]2)cc1 | 106
CC(C)CNC(=O)c1cc2c(s1)CN(C(C)C)C2 | 102
COc1cccc(CC(=O)N(C)CCc2noc(C(=O)NCc3ccccc3)n2)c1 | 102
COc1ccc(CNC(=O)c2c(O)c3cccc4c3n(c2=O)CCC4)cc1 | 120
O=C(COC(=O)c1cccc(N2C(=O)C3C4C=CC(C4)C3C2=O)c1)c1ccccc1 (centres undefined) | 106
CN(Cc1cccn1C)C(=O)C1CCCC1 | 110
CCN1C(=O)/C(=c2\sc3nc(-c4ccccc4OC(C)=O)nn3c2=O)c2ccccc21 | 112
Oc1ccc(Cl)cc1C1CC(c2ccccc2)=NC2(CCNCC2)N1 (centres undefined) | 99
O=c1ccn(-c2cccc(F)c2)nc1-c1nc(-c2ccc3c(c2)OCO3)no1 | 98
Cc1ccnc(N2CCC(C(=O)NCCc3ccc(S(N)(=O)=O)cc3)CC2)n1 | 102
COC(=O)c1ccc2c(=O)n(CCc3ccc(OC)c(OC)c3)c(SCC(=O)Nc3ccccc3OC)nc2c1 | 103
Cc1ccc(N2C(=S)N=C(Nc3cccc(C)c3)C23CCCC3)cc1 | 100
CCS(=O)(=O)c1nc2ccc(NS(=O)(=O)c3c(C)cc(C)cc3C)cc2s1 | 109
O=C(CSc1nc2ccccc2c(=O)n1CC1CCC(C(=O)NCc2ccco2)CC1)Nc1ccccc1C(F)(F)F (centres undefined) | 105
CCC(C)NC(=O)Cn1nc2c3scc(-c4ccc(C)cc4)c3ncn2c1=O (centres undefined) | 99
CC1CCC(NS(=O)(=O)c2ccc(-c3ccno3)s2)CC1 (centres undefined) | 95
CC(=O)Nc1ccc(Nc2coc3ccc4c(C)cc(=O)oc4c23)cc1 | 113
Cc1cc(C2CCCN2Cc2ccc(OCc3ccccc3)cc2)no1 (centres undefined) | 102
O=C1CSC(c2ccc(Cl)cc2)N1Nc1nc(N2CCOCC2)nc(N2CCOCC2)n1 (centres undefined) | 98
COc1ccc(-n2ccc(=O)c(-c3nc(-c4ccccc4Cl)no3)n2)cc1 | 104
COC(=O)c1ccc(-c2ccc(/C=C3\C(=O)N(c4ccc(S(N)(=O)=O)cc4)N=C3C(F)(F)F)o2)cc1 | 108
SMILES | GIV-Gai inh
O=C(NCCN1CCOCC1)c1ccccc1CN1C(=O)C2CCCN2C(=O)c2ccccc21 (centres undefined) | 99
Cc1ccc(N2CC(C(=O)NCc3nnnn3-c3ccc(F)c(F)c3)CC2=O)cc1C (centres undefined) | 98
O=C(CSc1nc2ccsc2c(=O)n1-c1ccc(F)cc1)Nc1ncn[nH]1 | 100
O=C1CCCC2=C1C(c1cccs1)Nc1ccc3ncccc3c12 (centres undefined) | 109
COC(=O)c1cccc(N2C(=O)/C(=C/c3ccc(Br)cc3)C=C2c2ccccc2)c1 | 111
COc1ccc(C2(O)CN(c3ccc(C)cc3)C3=[N+]2CCCC3)cc1OC (centres undefined) | 104
CCCc1cc(C2CCCN2Cc2cn[nH]c2-c2ccc(C)cc2)no1 (centres undefined) | 159
c1ccc(OCc2nc3c4c(-c5ccccc5)c(-c5ccccc5)oc4ncn3n2)cc1 | 105
CCCC1=NC(C)(C)Cc2cc(OC)c(OC)cc21 | 120
CCN(CC)c1ccc(/C=c2\sc3nc4cc(Br)cnc4n3c2=O)cc1 | 115
CC(=O)Nc1ccc(-c2cc(C(=O)NC3CC3)c3cc(C)ccc3n2)cc1 | 108
CCOC(=O)C1=C(C)NC2=C(C(=O)C(C(=O)OCC)C(c3cccc(OC)c3)C2)C1c1ccc(N(C)C)cc1 (centres undefined) | 101
COc1ccc(C(=O)Nc2ccc(S(=O)(=O)N3CCCCC3c3cccnc3)cc2)cc1 (centres undefined) | 111
CC1=CC(C)C2(CO)COC(c3ccc(N(C)C)cc3)C1C2C (centres undefined) | 111
Cc1ccc(C(=O)COC(=O)C(Cc2c[nH]c3ccccc23)NC(=O)c2ccco2)cc1 (centres undefined) | 110
COc1ccc(Cn2c(=S)[nH]c3cc(C(=O)NCCSCc4ccccc4)ccc3c2=O)cc1 | 108
O=C1/C(=C/c2ccc(Br)cc2)C=C(c2ccccc2)N1c1ccc2ncccc2c1 | 105
COC(=O)C1(OC)C(C(=O)c2ccc(C)cc2)=C(OC(c2ccccc2)c2ccccc2)C(=O)N1c1ccccc1 (centres undefined) | 105
O=S(=O)(c1cc(-c2noc(C3CCCC3)n2)cs1)N1CCCCCC1 | 99
CCCS(=O)(=O)c1c(S(=O)(=O)CCC)c2c3ccccc3ccn2c1C(=O)c1ccc(Br)cc1 | 111
CCOc1ccc(NC(=O)c2c(NC(C)=O)sc3c2CCC3)cc1 | 103
O=C1CC(c2cccc(Cl)c2Cl)c2c(ccc3ccccc23)N1 (centres undefined) | 109
CCC1=NS(=O)(=O)c2cccnc2N1c1ccc(C(C)C)cc1 | 103
CCN1C(=O)c2ccccc2Sc2cc(-c3noc(CCc4c[nH]c5ccccc45)n3)ccc21 | 99
COC(=O)Cn1cc(CN2CCCC2c2cc(C(C)C)on2)c2cc(OC)ccc21 (centres undefined) | 120
SMILES | GIV-Gai inh
CC(C)OC(=O)CC(=O)CSc1nc(-c2ccccc2)cc(C(F)(F)F)c1C#N | 103
Cc1csc(-c2cc(S(=O)(=O)NCc3ccco3)c(C)n2C)n1 | 106
O=C(c1cnc(N2CCCCC2)c2ccccc12)N1CCC(c2ccccc2)C1 (centres undefined) | 102
CCOC(=O)c1c(CSc2ccccc2)n(C)c2cc(Br)c(OC)cc12 | 108
C=CCN1C(=O)/C(=C\c2ccc(-c3cc(C(=O)O)ccc3Cl)o2)C(=O)NC1=S | 103
CC(=O)C1=C(C)NC(SCC(=O)c2cc(Cl)ccc2Cl)=C(C#N)C1c1cccs1 (centres undefined) | 112

Screening results deposited in PubChem BioAssay by ICCB-Longwood Screening Facility, Harvard Medical School.
